eIF4H inh: inhibitors of RNA binding by human eIF4H. Q15056. eIF4H fluorescence polarization binding assay. inhibition, % at 35 µM. hit rate 0.94% among 290,000. AID 2012;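 active = 50% or more with normal probe brightness, or confirmed in later tests; inconclusive = above 50% with abnormal brightness, or retests that disagree; inactive = below 50% or failed in later tests; about a fifth of its hits are not listed in these tables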;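 also: calls also rest on retests at 20 µM and on dose response follow-up; 0% = protein and probe with vehicle and 100% = probe without protein; strong numbers were not always called active; many hits fall short of the cut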
MT1-MMP act inh: inhibitors of human MT1-MMP activation; P50281; HT1080 RFP-PRO-GFP cells, GFP/RFP ratio fluorescence, overnight; percent of plate control window, DMSO zero; GFP/RFP ratio change, % at 20 µM; hit rate 0.061% among 360,000;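 active = GFP/RFP ratio change of at least 30% with cell ATP level not reduced by more than half and red fluorescence within 50% of control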; also: strong numbers were not always called active
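Material – HT1080 RFP-PRO-GFP cells · Control set – DMSO wells and RFP-L50D-GFP cells · Incubation – overnight cell settling, then overnight compound exposure, 37 °C, 5% CO2 · Compound dosing – single-point 20 µM compound, 1% DMSO · Read-out – GFP/RFP fluorescence ratio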
PABP FP inh: blocks human PABP binding to poly(A) RNA | P11940 | fluorescence polarization | inhibition, % at 35 µM | hit rate 1% among 290,000 | AID 2014;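 active = 50% or more with normal probe brightness, or confirmed in later tests; inconclusive = above 50% with abnormal brightness, or retests that disagree; inactive = below 50% or failed in later tests; about a fifth of its hits are not listed in these tables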;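 also: calls also rest on retests at 20 µM and on dose response follow-up; controls were probe without protein and protein plus probe with vehicle; some compounds called inactive have numbers as strong as hits; many hits fall short of the cut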
Rce1 inh: yeast Ras-converting enzyme inhibition | yeast membranes, quenched prenylated peptide cleavage fluorescence | calls only | hit rate 0.27% among 290,000;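 active = fall in fluorescence gain of 50% or more versus controls, with final raw signal at or below 3038400; inconclusive = same 50% fall but final raw signal above 3038400; inactive = fall in fluorescence gain under 50%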;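 also: plate controls were neutral control wells for no effect and wells lacking membranes for full effect; tested at 10 µM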
Target sequence (Q03530 whole entry, looked up): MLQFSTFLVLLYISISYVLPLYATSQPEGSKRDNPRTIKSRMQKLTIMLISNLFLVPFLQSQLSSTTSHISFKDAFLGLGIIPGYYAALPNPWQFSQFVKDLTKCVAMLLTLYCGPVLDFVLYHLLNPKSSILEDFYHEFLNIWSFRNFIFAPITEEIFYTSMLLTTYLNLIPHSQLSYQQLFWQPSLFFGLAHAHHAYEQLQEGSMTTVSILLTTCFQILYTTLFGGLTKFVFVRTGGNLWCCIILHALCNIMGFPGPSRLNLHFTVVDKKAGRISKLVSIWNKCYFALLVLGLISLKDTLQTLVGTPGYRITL
HIV Env fusion: inhibitors of HIV Env-mediated cell fusion; HeLa-JRFL Env/CEM21 cell fusion, luciferase; inhibition, % at 12.3 µM; hit rate 1.1% among 360,000; AID 651610;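 active = mean replicate inhibition score of at least 50 and every replicate individually at or above 50; inconclusive = only one of the two criteria met; inactive = mean below 50 and not all replicates reaching 50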;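 also: 0% = plate neutral controls and 100% = maraviroc near 300 nM; one replicate is shown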
Yeast UUG start: alters start codon recognition fidelity in yeast; S. cerevisiae UUG-firefly luciferase reporter, luminescence/redox ratio; activity score, % at 18.7 µM; hit rate 0.13% among 350,000;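 active = replicate mean at a twofold rise or more, about +100% in these data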;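 also: firefly luciferase made from a UUG start codon reports start codon fidelity; reporter light over untreated wells divided by growth signal over untreated wells; some hits fall short of that in this replicate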
CSC inhib: cancer stem cell inhibition; cancer stem cell-like cells viability, luminescence; inhibition, % at 7.5 µM; hit rate 1.1% among 300,000; AID 2717;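 active = mean at 75% or more and at least half the replicates too; inconclusive = mean and replicates disagree; tested in HMLE shEcad cells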;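 also: 0% = median of negative and 100% = median of positive control wells; the first replicate is given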
PABP FP inh retest: further read-out of PABP FP inh, marked with its call; inhibition, %; compound at 20 µM; confirmation repeats;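 mean of two retest wells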
MT1-MMP act inh RFP: further read-out of MT1-MMP act inh, marked with its call; RFP signal change, %; measured here: RFP expression control read;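 0 = vehicle wells; hits needed this value within 50% of zero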
The depositor's hits bear a star; i = inactive; ? = inconclusive; nt = not tested or not shown; & = joins results of further samples. Not all compounds are listed; count on the stated rates, not on these rows.

SMILES	eIF4H inh	MT1-MMP act inh	MT1-MMP act inh RFP	PABP FP inh	Rce1 inh	HIV Env fusion	Yeast UUG start	CSC inhib	others
CCc1nc2ccc(C(=O)NCCc3ccccn3)cn2c1N(CC)Cc1cccc(Br)c1	nt	-2	-9	nt	nt	-10	-17	nt
COc1ccccc1C1CCN(C(=O)c2ccccc2)CC1	-5	3	1	-3	i	17	-5	3
COc1ccc(S(=O)(=O)NC(C)C(=O)O)cc1 (configuration not stated)	20	10	-3	1	i	nt	-15	-1
CCOCCCNC(=O)C1CCN(S(=O)(=O)c2cc(Br)cc3c2N(C(=O)CC)CC3)CC1	-1	2	3	11	i	2	2	nt
C=CCN1C(=O)c2ccc(C(=O)Nc3ccccn3)cc2C1=O	nt	1	3	nt	i	-4	-14	-5
COc1cc(C(=O)NCc2nnc(SCC(=O)N3CCc4ccccc43)o2)cc(OC)c1OC	-6	-1	3	-2	i	nt	-17	-12
CC/C(C)=N/NC(=O)c1[nH]c2ccc(C)cc2c1-c1ccccc1	-2	-8	1	0	i	2	-11	23
O=C(NCCCN=C1NS(=O)(=O)c2ccccc21)c1ccc(S(=O)(=O)N2CCCCC2)cc1	-4	-3	-3	-10	i	-66	-3	7
COC(=O)N/N=C/c1ccc(/C=N/NC(=O)OC)cc1	2	-4	1	-2	i	13	nt	-10
COc1ccc(CNC(=O)CN(C(=O)c2csnn2)c2cccc3ccccc23)cc1	-15	1	-2	0	nt	4	-11	-9
CCCc1nnc(NC(=O)c2cccc(OC)c2)s1	6	6	-1	-20	i	nt	-9	6
COc1ccc(-c2nc3oc4cc(OC)ccc4c(=O)c3c(=O)n2Cc2ccco2)cc1	0	0	3	0	i	-78	9	-14
O=C(Nc1nc2ccccc2s1)C1CC(=O)N(c2ccc(Cl)cc2)C1 (configuration not stated)	-9	5	5	1	i	nt	-2	18
Cc1csc(NC(=O)c2sccc2C)n1	-3	1	3	-1	i	-37	-15	13
C[C@@H]1CN([C@@H](C)CO)C(=O)c2cc(-c3ccncc3)cnc2O[C@H]1CN(C)C(=O)c1cccc(F)c1	nt	3	2	nt	nt	10	1&-4&2	nt
c1ccc2c(c1)CCc1c-2nc2ccccc2c1N1CCOCC1	-8	-5	-2	4	nt	22	nt	16
C=CCn1c(SCC(=O)Nc2c(C)n(C)n(-c3ccccc3)c2=O)nc2sc(C)c(-c3ccccc3)c2c1=O	-4	-4	-5	-6	i	-26	15	-13
CCOc1ccc(CN(C)C(=O)CNC(=O)c2ccccc2)cc1	-2	4	4	-1	i	-14	nt	-7
COc1cc(C(=O)OCCCN(C)C)cc(OC)c1OC	-5	-1	1	3	i	27	-7	-16
Cc1csc(NS(=O)(=O)c2ccc(Cl)cc2)n1	-6	-1	7	-3	i	2	-9	-2
Cc1cc(NC(=O)c2ccc([N+](=O)[O-])cc2)no1	-1	-1	-1	3	i	-13	-22	nt
Cc1ccc(NC(=O)CN(C)C(=O)COC(=O)C(C)(C)Oc2ccc(Cl)cc2)cc1	5	3	4	4	i	1	3	0
Oc1ccc(N=Cc2cc(Br)c(N3CCOCC3)o2)cc1	25	4	7	-14	i	4	nt	nt
Cc1cc(CN(C)C(=O)c2cc(COc3ccc4ncccc4c3)on2)on1	-13	13	-30	3	i	-15	-16	-12
O=C(NCC(=O)N1CCN(c2ccc([N+](=O)[O-])cc2)CC1)c1ccco1	nt	10	-9	nt	nt	5	-7	-3
O=C(CCCc1nc2ccccc2s1)NCc1cccnc1	8	6	2	3	i	-21	nt	-2
CC1CCCCC12NC(=O)N(CC(=O)Nc1ccccc1F)C2=O (configuration not stated)	nt	2	4	nt	nt	-2	-13	nt
COCCNC(=O)C1(C)CCCN(Cc2csc3ccccc23)C1 (configuration not stated)	nt	-2	3	nt	nt	2	-12	nt
COC(=O)C1CCN(c2cc(=O)n(-c3ccc(OC)cc3)c(=O)[nH]2)CC1	6	1	2	-4	i	-23	10	15
CCC1(c2ccc(OC)cc2)NC(=O)N(CC(=O)N2CCc3ccccc32)C1=O (configuration not stated)	nt	4	-2	nt	nt	12	-8	nt
COc1ccc(C(=O)OCn2nnc3ccccc3c2=O)cc1OC	3	-2	-3	4	i	nt	-19	2
O=S(=O)(c1cc(Cl)ccc1Cl)n1cccn1	-12	3	8	12	i	-2	nt	-14
CC(=O)Nc1ccc(NC(=O)CCCc2c[nH]c3ccccc23)cc1	-3	6	4	10	i	18	-14	-17
COc1cc2oc(=O)ccc2cc1[C@@H](O)[C@@H]1OC(C)(C)OC1(C)C	nt	-4	4	nt	nt	-15	-15	-13
COc1cc(OC)nc(Nc2nc(C(N)CCc3ccccc3)cs2)n1 (configuration not stated)	nt	-1	-5	nt	nt	52	-36	nt
CCOc1ccc(C2c3c(oc4ccccc4c3=O)C(=O)N2CCCN2CCOCC2)cc1OCC (configuration not stated)	-8	1	2	11	i	-71	15	-11
Cc1cccc(-c2cc(NCCc3cccnc3)n3nccc3n2)c1	nt	1	5	nt	nt	-115	-18	nt
CN(C)c1ncnc2c1ncn2[C@H]1CN(Cc2ccc(Cl)cc2)C[C@@H](CO)O1	nt	2	2	nt	nt	-17	5	nt
COC(=O)CN(Cc1ccco1)S(=O)(=O)c1ccccc1	-5	-3	-3	6	i	12	0	10
CCOC(=O)N1CCC(NC(=O)c2ccc3c(c2)sc2nc(-c4ccccc4)cn23)CC1	-16	-2	-19	-4	nt	nt	-19	7
O=c1[nH]c2sc3c(c2c2nncn12)CCCC3	-6	0	8	-12	i	-36	-16	8
CC1CC(C)CN(CCCNC(=O)c2ccc3c(c2)NC(=O)C(N2CCCCC2)S3)C1 (configuration not stated)	-5	3	2	-5	i	nt	nt	25
COCc1cc(C)nc2sc3c(=O)oc(C)nc3c12	-2	2	2	16	i	nt	-28	-3
COCCN(Cc1nnc(-c2cccs2)o1)C(=O)CN1C(=O)NC2(CCCCC2)C1=O	nt	3	2	nt	nt	-21	-10	-12
COc1cccc(C(=O)NCC(=O)N2CCN(c3ccc(C(F)(F)F)cn3)CC2)c1	nt	2	-20	nt	nt	4	-15	nt
CC(/C=C1\N=C(SCc2ccccc2)SC1=O)=C\c1ccccc1	5	nt	nt	9	i	8	-3	nt
Cc1ccc(/C=C2/C(=O)N(c3ccccc3)C(=S)N2C)o1	22	2	0	-5	i	-25	nt	-13
CCOc1ccc(/C=N/NC(=O)CN2CCCCCCC2)cc1	8	2	5	-1	nt	7	nt	-6
Cc1ccccc1CS(=O)(=O)CCC(=O)NCCCN1CCOCC1	7	1	1	1	i	-29	nt	5
Cc1cccc(-c2noc(-c3ccc4c(c3)OCO4)n2)c1	5	4	3	-5	i	-107	nt	3
(listing goes on)
SMILES	eIF4H inh	MT1-MMP act inh	MT1-MMP act inh RFP	PABP FP inh	Rce1 inh	HIV Env fusion	Yeast UUG start	CSC inhib	others
COCCN1C(=O)N[C@H](c2cccc(C(F)(F)F)c2)C(C(=O)OC)=C1C	6	nt	nt	14	i	nt	nt	-11
Cc1ccc2ncnc(Nc3cccc([N+](=O)[O-])c3)c2c1	9	-3	-18	0	i	24	-13	43
Cc1nc(-c2ccccc2)sc1-c1ccn[nH]1	?	-3	-3	64*	?	-215	-22	1	PABP FP inh retest=105*
CCCN(CC(=O)Nc1ccccc1OC)C(=O)Cc1ccccc1F	1	-4	-1	1	nt	10	-1	-14
COc1ccc(CNCCC2(C(C)C)CCOC(C)(C)C2)cc1 (configuration not stated)	-2	2	1	13	i	1	12	-8
CC1CC(Nc2ccccc2)c2ccccc2N1C(=O)c1ccccc1F (configuration not stated)	-6	-7	-17	10	i	9	-13	26
Cc1cccc(C(=O)N2CCc3cc(-c4csc(NC(=O)CN5CCCC5)n4)ccc32)c1	-8	10	-11	-16	i	-22	-14	24
CC(C)(C(=O)c1ccccc1)/[N+]([O-])=C/c1ccc(Br)cc1	nt	3	1	nt	i	nt	-14	1
O=C1NC[C@@H](Cc2ccc(O)cc2)N(CC2CCCCC2)C1=O	-6	2	2	2	i	16	7	-9
Cc1ccc(CNC(=O)c2ccc(CNc3c(N4CCCC4)c(=O)c3=O)cc2)cc1	-11	-1	2	-4	i	19	-8	-12
Cc1cccc(N2C(=O)/C(=C\c3ccc(C(=O)O)cc3)c3ccccc3C2=O)c1	1	18	10	2	i	6	-13	20
CC1=NN(c2ccccc2)C(=O)C1C(=S)SC1CC(=O)NC1=O (configuration not stated)	nt	5	2	nt	nt	-14	-31	nt
Cn1nc(C(F)(F)F)c2cc(C(=O)Nc3ccc(Cl)cc3)sc21	-7	-6	-7	-9	i	nt	-13	15
O=C(CCCN1C(=O)/C(=C/c2cccs2)SC1=S)NNC(=O)c1ccc(F)cc1	-8	3	0	-6	i	-24	-3	15
CC(C)CC(NC(=O)C1CCCN1C(=O)OC(C)(C)C)C(=O)NCC(N)=O (configuration not stated)	-10	1	2	4	i	nt	1	nt
COc1ccc(-c2csc(N(Cc3ccccc3)C(=O)COc3ccc(Cl)cc3)n2)cc1	2	2	1	6	i	-16	-2	10
N#C/C(=C\c1ccco1)C(=O)NCc1ccccc1	-1	0	3	-1	i	nt	nt	nt
CCOC(=O)C1=C(C)OC(=CC=Cc2ccccc2)C1=O	nt	-2	9	nt	nt	-73	-9	nt
Cc1ccccc1NC(=O)C(c1ccccc1)C1CCCC1 (configuration not stated)	2	6	2	-7	i	19	nt	5
COC1=NC(=C(c2ccccc2)c2ccccc2)OC1=O	nt	0	4	nt	nt	0	-16	nt
Cc1cccc(NC(=O)Nc2cccc(C#N)c2)n1	-4	-9	-8	-5	i	-2	-16	1
CCCC(c1nnnn1C(C)(C)C)N1CCN(C(=O)c2ccco2)CC1 (configuration not stated)	1	-3	-2	12	i	-14	nt	1
CN1CCN(/C=C2\SC(=S)NC2=O)CC1	-2	2	5	-1	i	nt	-2	-6
Cc1nc2ccc(C(=O)Nc3ccc4c(c3)OCC(=O)N4)cn2c1N(C)C(=O)CCc1ccccc1	nt	1	-2	nt	nt	-11	-16	nt
COC1=C(Nc2ccccc2)C(=O)C(OC)=C(Nc2ccccc2)C1=O	nt	3	8	nt	nt	-38	-2	nt
COc1ccc(NS(=O)(=O)c2cn(C)c(=O)n(C)c2=O)c(OC)c1	-4	-1	3	-4	i	5	-17	-17
CC(=O)N1CCN(c2ccccc2NC(=O)COc2cc(C)cc(C)c2)CC1	-9	-2	-6	-1	i	4	7	nt
COCCn1c(SCC(=O)Nc2ccc(C(C)=O)cc2)nnc1-c1ccco1	0	1	2	1	i	-2	nt	0
CCn1c(=S)sc2c(=O)n(CC(=O)Nc3ccc(C(C)=O)cc3)c(C)nc21	-1	7	6	2	i	-4	-11	-7
CCOC(=O)Cc1csc(NC(=O)CN(C)S(=O)(=O)c2cccc3cccnc23)n1	-10	-4	-2	-3	nt	8	6	-11
O=C(NCCCNC(=O)c1cnccn1)c1cccc(F)c1	3	0	4	7	i	-13	nt	2
Cc1ccc(OCc2cc(C(=O)NCc3ccc(OC(F)(F)F)cc3)no2)cn1	-4	2	-9	-15	i	-7	-15	12
CCCN1CNc2c(c(=O)[nH]c(=S)n2CCc2ccc(OC)c(OC)c2)C1	5	-3	-6	-8	i	5	-14	4
Cn1nc(C(=O)NCCCN2CCCCC2)c2c1-c1ccccc1S(=O)(=O)C2	-2	-1	5	2	i	nt	-8	3
COc1ccc(Nc2c(-c3ccc(OC)cc3)nc3cnccn23)cc1	1	3	-1	11	i	18	-18	-2
